VDR inhibitor: blocks the human vitamin D receptor. 400,000 tested, 0.93% active. AID 504847. Potency, µM, for the others: max response, negative = inhibition, most hits filed as inhibitors. VDR-SRC2-3 peptide fluorescence polarization, 2 h; active = well fitted inhibition curve with a large enough effect; inconclusive = small, poorly fitted or top-dose-only effect, or another doubt; inactive = no such curve, though single readings can be large or run the other way; note: series mostly up to about 120 µM
Target sequence (P11473 whole entry, looked up): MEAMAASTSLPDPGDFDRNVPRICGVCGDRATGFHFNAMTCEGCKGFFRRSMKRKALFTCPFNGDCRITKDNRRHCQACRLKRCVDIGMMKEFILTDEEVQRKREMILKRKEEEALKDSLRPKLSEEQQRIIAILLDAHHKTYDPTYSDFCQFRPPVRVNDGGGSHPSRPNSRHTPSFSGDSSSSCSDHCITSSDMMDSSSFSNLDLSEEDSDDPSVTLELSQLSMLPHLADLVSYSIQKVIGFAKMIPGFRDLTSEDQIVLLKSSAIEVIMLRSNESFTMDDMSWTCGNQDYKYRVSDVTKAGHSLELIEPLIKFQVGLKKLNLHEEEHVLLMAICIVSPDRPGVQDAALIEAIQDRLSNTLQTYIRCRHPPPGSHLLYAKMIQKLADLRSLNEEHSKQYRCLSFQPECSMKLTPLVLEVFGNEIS
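Compounds are added to VDR with labelled SRC2-3 coactivator peptide and held 2 h at room temperature. Inhibition of the VDR–peptide interaction is then read as a change in fluorescence polarization.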
Active calls of the source: *; ? = inconclusive; & = joins results of further samples. % is set by controls: 0 for no effect and ±100 for the full control effect; potency is the fitted concentration of half-maximal effect. Some of the compounds tested; count on the stated rates, not on these rows.

molecule | VDR inhibitor
Cc1ccc(C(=O)O)cc1-n1c(C)cc(C=O)c1C | 1%
Cc1ccc(-n2c(C)cc(C(=O)CSc3nnnn3C)c2C)cc1 | 11%
O=S(=O)(c1cccs1)N1CCN(c2ncccn2)CC1 | 22%
CCOc1ccc(S(=O)(=O)N(C)CC(=O)NCCN2CCOCC2)cc1 | 0%
O=C(NCc1ccc(Cl)cc1)c1ccc2c(c1)NC(=O)C(CS(=O)(=O)Cc1ccccc1Cl)N2 (stereo unspecified) | 8%
CCN(CC)CCNC(=O)c1cc(Br)c(N)cc1OC | -8%&12%&6%
CC(NC(=O)CSc1nnc(-c2cccc(S(=O)(=O)N3CCCCC3)c2)o1)C12CC3CC(CC(C3)C1)C2 (stereo unspecified) | 3%
COc1ccc(/C=C/C(=O)c2ccccn2)cc1 | 40µM*
O=C(Nc1ccc(S(=O)(=O)Nc2ncccn2)cc1)C1CC(=O)N(c2ccccc2)C1 (stereo unspecified) | 0%
O=c1c(-c2ccc3c(c2)OCCO3)coc2c(CN3CCOCC3)c(O)ccc12 | 7%
CC(C)(C)SC(C(=O)N1CCOCC1)c1ccc(Br)cc1 (stereo unspecified) | -3%
COc1ccc(NC(=O)CCCc2nc3ccccc3c(=O)[nH]2)cc1Cl | 18%
O=C(CCNC(=O)c1ccc(Cl)cc1)Nc1ccccc1Cl | -3%
CN(C)CCCNS(=O)(=O)c1ccc(Cl)s1 | 5%
Cc1ccccc1OCC(=O)NC(=S)Nc1ccc2c3c(cccc13)CC2 | -25%
Cc1ccc(S(=O)(=O)N2CCN(C(C(=O)Nc3ccc(F)cc3)c3ccccc3)CC2)cc1 (stereo unspecified) | -3%
Nc1ccc2[nH]ncc2c1 | -17%
COc1cc(OC)cc(C(=O)c2c(C)c(C#N)c3ccccn23)c1 | 19%
CCCSc1nnc(N2C(=O)CC(c3ccsc3)C3=C2CCCC3=O)s1 (stereo unspecified) | -6%
CCOC(=O)C(C)Sc1ccc2nnc(-c3ccc(OCC)cc3)n2n1 (stereo unspecified) | -2%
Cc1ccn2c(=O)nc(SCC(=O)c3ccccc3)nc2c1 | -6%
Cc1cc(OCC(=O)OC(C)C(=O)Nc2ccc(N3CCOCC3)cc2)ccc1Cl (stereo unspecified) | -10%
Cc1cccc(C(=O)OC(C)CN2C(C)CCCC2C)c1 (stereo unspecified) | -6%
COc1ccc(OC)c(C2C(C#N)=C(N)Oc3c2c(C)nn3-c2ccc(C)cc2)c1 (stereo unspecified) | -17%
C=CCSc1cc(C)nc2c(-c3ccccc3)cnn12 | -7%
CCn1ncc(C2=NOC(C(=O)NCc3ccccc3)C2)c1C (stereo unspecified) | -2%
Cc1c(Cl)cccc1NC(=O)CNC(=O)C1CC(=O)N(C2CCCC2)C1 (stereo unspecified) | 4%
O=C(O)c1cccc(-c2nnn(Cc3ccccc3Cl)n2)c1 | -25%
Cc1ccc(C)c(NC(=O)CN(C)C(=O)c2ccc3[nH]c4c(c3c2)CC(C)CC4)c1 (stereo unspecified) | -1%
O=C(CSc1nc(C2CC2)nc2ccccc12)Nc1ccc2c(c1)OCCO2 | -6%
O=C(c1ccccc1)N(Cc1nc2ccccc2c(=O)[nH]1)C1CCCC1 | 0%
COc1ccc(C2CC(c3cccc(Cl)c3)=NN2c2ccc(S(N)(=O)=O)cc2)cc1 (stereo unspecified) | -9%
Nc1nnnn1/N=C/c1cccc(O)c1 | 4%
CNC(=S)NC12CC3CC(CC(C3)C1)C2 | -4%
O=C(Nc1ccc(Br)cc1F)c1sccc1-n1cccc1 | -3%
CCOc1ccc(Cn2c(CNS(=O)(=O)c3ccc(C(C)(C)C)cc3)nc3cccnc32)cc1 | 4%
Cc1cc(OCC(=O)OCC(=O)N(C)C2CCS(=O)(=O)C2)ccc1Cl (stereo unspecified) | -6%
Nc1nc(N)c(N=Nc2ccc(Cl)cc2)c(=O)[nH]1 | ?
CCCCOc1ccc(/C=C/C(=O)NC2=Nc3ccccc3NC(C)=C2C(=O)OCC)cc1OC | -8%
CCOc1nc(NC(=O)NS(=O)(=O)Oc2ccccc2)nc(-c2ccccc2)n1 | -30%
Cc1cc(C(=O)Nc2ccc(Cl)cc2)c(C)n1-c1ccccc1 | -12%
COc1ccc(CC(=O)N2CCc3c([nH]c4ccccc34)C2c2ccc(SC)cc2)cc1 (stereo unspecified) | 8%
C=CCn1c(COc2ccc(OC)cc2)nnc1SCn1nnc2ccccc2c1=O | -18%
CCN(CC)C(=O)Cn1c(=O)n(-c2ccc(Cl)cc2)c(=O)c2c3c(sc21)CCC3 | 4%
Cc1ccc(Cn2ncc3c(N4CCN(Cc5ccc(Cl)cc5)CC4)ncnc32)cc1 | -15%
COCCCN1CN(Cc2ccccc2)CNC1=S | -4%
CCNc1nc(NCC)n2c(SCC(=O)NC34CC5CC(CC(C5)C3)C4)nnc2n1 | -10%
Cc1cnc(C)c(N2CCN(C(=O)C3CCC(=O)N(CCc4cccc(F)c4)C3)CC2)n1 (stereo unspecified) | -20%
COC(=O)c1ccc(NC(=O)CCN2C(=O)NC(C)(C)C2=O)cc1 | 1%
Cc1ccccc1C(=O)NC1CCN(Cc2nnnn2C2CCCC2)CC1 | 24%
CSc1nsc(SCC(=O)Nc2ccc(Cl)c(C(=O)O)c2)n1 | -14%
c1ccc(C2NCCNC2c2ccccc2)cc1 (stereo unspecified) | -6%
Cc1sc(-c2ccncc2)nc1OC(=O)c1ccc(Cl)cc1 | 25%
O=C(O)/C=C/c1cccc(NC(=O)c2ccccc2)c1 | -9%
Cc1noc(C)c1CSCC(=O)N(C)CC(=O)Nc1ccc(Cl)c(C(F)(F)F)c1 | -23%
COc1ccc(OC)c(S(=O)(=O)Nc2ccc(-c3ccc4nnc(C)n4n3)cc2)c1 | -19%
CCn1ccnc1CNC(=O)CC1C(=O)NCCN1Cc1ccc(OC)cc1OC (stereo unspecified) | -1%
c1ccc(N2CCN(CC3CCCCC3)CC2)cc1 | 1%
COc1ccccc1OCC(=O)NCc1nc(-c2ccc(Cl)cc2)no1 | 0%
CC1CCCCC12NC(=O)N(CC(=O)OCc1ccccc1F)C2=O (stereo unspecified) | -10%

The results go on.
molecule | VDR inhibitor
CCN1CCN(C(c2cc3cccc(C)c3[nH]c2=O)c2nnnn2Cc2ccccc2)CC1 (stereo unspecified) | 2%
C=CCN(CC=C)CC(=O)Nn1c(C)ccc1C | -17%
COc1cc2c(C(=O)N3CCN(c4ccccc4C)CC3)c(C)oc2cc1Br | -10%
COc1ccc(-c2cc(C(=O)Nc3cc(C)on3)c3ccccc3n2)c(OC)c1 | -8%
C/C(CC(=O)Nc1ccc2c(c1)OCCO2)=N\NC(=O)COc1ccc(C)cc1 | -1%
COc1ccc(C(=O)NCC(c2cccs2)S(=O)(=O)c2ccc(F)c(C)c2)cc1 (stereo unspecified) | 11%
COc1ccc(S(=O)(=O)c2c(C(=O)c3ccc(C)c(C)c3)cnc3ccc(C)cc23)cc1 | -8%
CCOC(=O)C1CCN(C(=O)c2cccc(S(=O)(=O)N3CCCc4ccccc43)c2)CC1 | -7%
Fc1ccc(CNc2ncnc3c2c(-c2ccccc2)cn3-c2ccccc2)cc1 | 17%
O=C(CCCn1c(=S)[nH]c2ccsc2c1=O)NCc1ccco1 | -1%
Cc1c(C(=O)OC2CCCCCC2)[nH]c2c1C(=O)CC(c1ccc(N(C)C)cc1)C2 (stereo unspecified) | -20%
COc1cccc(-c2nn(C)c3sc(C(=O)NCc4ccco4)cc23)c1 | 12%
O=C(NCCc1ccccc1)C1CCCN1C(=O)Nc1ccc(F)cc1 (stereo unspecified) | -32%
O=C(Cc1cccs1)Nc1ccon1 | -9%
COC(=O)Cc1c(C(=O)OC)nnn1-c1cccc(C(F)(F)F)c1 | -10%
CCOC(=O)C1=C(C)NC(C)=C(C(=O)OCC)C1C(=O)OCC(=O)NC(C)c1ccccc1 (stereo unspecified) | -4%
Cn1ncnc1SCc1cn2cccnc2n1 | 3%
COc1cccc2c1cc1c(=O)n(CC(=O)N3CCCCCC3)nc(C)n12 | 1%
CC(=O)c1ccc2c(ccc3ccccc32)c1 | 7%
COC(=O)c1ccc(-n2nnnc2SCC(=O)Nc2cc(OC)ccc2OC)cc1 | 2%

Gathered by group, the entries above containing bromine
molecule | VDR inhibitor
CCN(CC)CCNC(=O)c1cc(Br)c(N)cc1OC | -8%&12%&6%
CC(C)(C)SC(C(=O)N1CCOCC1)c1ccc(Br)cc1 (stereo unspecified) | -3%
O=C(Nc1ccc(Br)cc1F)c1sccc1-n1cccc1 | -3%
COc1cc2c(C(=O)N3CCN(c4ccccc4C)CC3)c(C)oc2cc1Br | -10%

The main list resumes, repeating the 2 entries before the break.
molecule | VDR inhibitor
CC(=O)c1ccc2c(ccc3ccccc32)c1 | 7%
COC(=O)c1ccc(-n2nnnc2SCC(=O)Nc2cc(OC)ccc2OC)cc1 | 2%
CCOc1cc(/C=N/NC(=O)C(=O)NCc2ccc3c(c2)OCO3)ccc1OCC(=O)N1CCOCC1 | -8%
CCCCC(=O)NC(=S)Nc1nnn(CCC)n1 | -22%
COc1ccc(Cn2c(SCc3ccc(C(=O)NCCc4ccccc4)cc3)nc3cccnc32)cc1 | -2%
CC(C)(C)c1ccc(-c2noc(C(=O)NN)n2)cc1 | -14%
COc1ccc(-c2n[nH]c3c2CN(C(=O)c2ccc(F)cc2)CC3)cc1 | 27%
O=[N+]([O-])c1ccc(CS(=O)(=O)c2ncn[nH]2)cc1 | 0%
CC(=O)NCCC1CCN(C(=O)C2CCC(=O)N(C3CCCC3)C2)CC1 (stereo unspecified) | -24%
COc1cccc([C@@H]2Oc3ccc(OC)cc3C(=O)[C@H]2OC(=O)NS(=O)(=O)c2ccc(C)cc2)c1 | 0%
CC(C)(C)OC(=O)N[C@@H](Cc1ccccc1)c1nnc(SCC(=O)c2ccc(Cl)cc2)o1 | 1%
O=C(c1cc(F)c(F)c(F)c1F)N1CCN(Cc2ccc3c(c2)OCO3)CC1 | 14%
COc1ccc(NC(=O)c2nn(C34CC5CC(CC(C5)C3)C4)cc2[N+](=O)[O-])cc1 | -6%
c1ccc(-c2ccc(-c3ccncn3)cc2)cc1 | 10%
O=S(=O)(NCCc1nnc2ccc(SCc3cccc(Cl)c3)nn12)c1ccccc1 | 5%
Cn1c(=O)c2cc(C(=O)N3CCN(c4cccc(C(F)(F)F)c4)CC3)sc2c2ccccc21 | -8%
O=C(CNC(=O)c1cccc(OC(F)F)c1)OCC(=O)c1ccccc1 | 19%
O=S(=O)(c1ccc(S(=O)(=O)N2CCCN(Cc3ccccc3)C2)cc1)N1CCCCCC1 | -9%
CCOc1ccc(C(=O)N2CCN(C(=O)c3ccco3)CC2)cc1OCC | 1%
O=C1CCCc2c1[nH]c1ccc(Br)cc21 | 3%
CCc1noc(C)c1C(=O)Nc1cc(Cl)ccc1-n1cncn1 | 5%
Cc1ccc(C(=O)NCC(=O)OCCCOC(=O)CNC(=O)c2ccc(C)c(C)c2)cc1C | -9%
O=C(Nc1ccc2c(c1)OCO2)C1CC1(Cl)Cl (stereo unspecified) | 18%
S=C(NCCc1ccccc1)Nc1ccc(Br)cc1 | -8%
Cn1c(=O)oc2cc(S(=O)(=O)CCC(=O)N3CCN(c4cccc(Cl)c4)CC3)ccc21 | 15%
Cc1csc(NC(=O)CCNC(=O)c2ccc([N+](=O)[O-])cc2)n1 | -8%
COCCOCC(O)CN1CCN(c2ccccc2)CC1 (stereo unspecified) | -3%
CCN(CC(=O)NCCc1ccccc1)S(=O)(=O)c1ccc(Br)cc1 | 2%
CC(C)CNc1ncnc2oc(-c3ccco3)c(-c3ccco3)c12 | -29%
O=C(NCc1cccnc1)c1ccc(COc2ccccc2Cl)o1 | -9%
COc1cc(OC)c(NC(=O)CSCc2nc(-c3ccc(OC)c(OC)c3)no2)cc1Cl | 16%
COc1ccc(C(=O)NNC(=O)Nc2ccc(C)cc2)cc1 | -22%
CC(=O)Nc1ccc(C(=O)Nc2nc(-c3cccnc3)cs2)cc1 | ?
O=c1c2sc3ccccc3c2n(Cc2ccccc2)c(=O)n1Cc1ccccc1 | -1%
O=c1c2cnn(-c3ccccc3)c2ncn1CCc1ccccc1 | -28%
O=C(NC(Cc1ccccc1)C(=O)NCc1ccccn1)c1ccco1 (stereo unspecified) | -2%
O=C(O)c1ccccc1C(=O)Nc1ccc(-n2nc(C(F)(F)F)cc2C(F)(F)F)cc1 | -2%
O=C(COC(=O)c1cccc(O)c1)Nc1nnc(-c2ccccc2)o1 | -8%
COc1ccc(-c2ccc(-c3noc(-c4ccccc4C)n3)c(OC)n2)cc1 | 9%
Cc1ccc(CCNC(=O)CCNS(=O)(=O)c2ccc3c(c2)c(=O)n(C)c(=O)n3C)cc1 | 3%
CCC(=O)Nc1nc2nc(-c3ccccc3)cc(-c3ccccc3)n2n1 | -13%
CC1(C)CC(=O)N(c2cccc(C(F)(F)F)c2)C(=O)C1 | 6%
Cc1cccnc1NC(=O)c1ccc([N+](=O)[O-])o1 | 0%
CCCCn1c(Cl)nc2c1c(=O)n(C)c(=O)n2C | -2%
CCSc1nnc(-c2ccccc2SC)o1 | 1%

Taken from above:
Result of S=C(NCCc1ccccc1)Nc1ccc(Br)cc1 under VDR inhibitor: -8%
Result of CCCCn1c(Cl)nc2c1c(=O)n(C)c(=O)n2C under VDR inhibitor: -2%

Source: PubChem BioAssay
